TRPML1 inh = qHTS for Inhibitors of the Human Mucolipin Transient Receptor Potential 1 (TRPML1). activity change, negative = inhibition, % (concentration not given with the values). AID 624415, 2012. hit rate 0.02% among 390,000. TRPML1-inducible cells, Ca2+ dye fluorescence, FDSS; hits give low values; inhibition of EC80 agonist-evoked calcium signal; in the data active means activity change below about -50%; inconclusive means about -30% to -50%; inactive means above about -30%;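 also: stimulus is agonist 54-4 at its EC80 concentration; % is scaled to controls: 0 for no effect and ±100 for the full control effect; compound concentration not given in the record; the text of the record puts the active cut at -80%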
Target sequence (Q9GZU1 whole entry, looked up): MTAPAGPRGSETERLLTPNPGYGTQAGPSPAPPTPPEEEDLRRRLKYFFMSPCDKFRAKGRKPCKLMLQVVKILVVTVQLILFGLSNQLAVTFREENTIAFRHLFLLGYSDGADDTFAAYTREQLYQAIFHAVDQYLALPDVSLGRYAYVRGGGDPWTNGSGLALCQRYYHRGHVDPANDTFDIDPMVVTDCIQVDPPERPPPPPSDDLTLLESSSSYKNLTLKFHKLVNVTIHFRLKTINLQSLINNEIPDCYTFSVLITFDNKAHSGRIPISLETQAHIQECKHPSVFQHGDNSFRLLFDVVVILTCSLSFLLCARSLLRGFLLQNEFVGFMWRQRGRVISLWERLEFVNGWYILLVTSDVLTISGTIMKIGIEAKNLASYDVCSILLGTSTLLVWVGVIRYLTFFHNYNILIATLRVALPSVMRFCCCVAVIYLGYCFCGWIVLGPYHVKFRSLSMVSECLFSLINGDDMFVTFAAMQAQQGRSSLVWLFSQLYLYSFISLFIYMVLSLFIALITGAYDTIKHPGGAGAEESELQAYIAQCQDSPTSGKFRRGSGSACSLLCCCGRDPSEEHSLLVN
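Tet-induced TRPML1-DL cells loaded with Ca8 no-wash calcium dye were read kinetically on FDSS. Compound addition was followed by EC80 agonist 54-4 (4 uM final); inhibition was read over 110 s.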
ClpP mod = qHTS Assay for Activators of ClpP | ATP-dependent Clp protease proteolytic subunit (Bacillus subtilis (strain 168)), P80244 | purified B. subtilis ClpP, FRET peptide cleavage, 20 min | Potency, µM (highest dose often 57.5 µM), for inactives: at the highest dose activity change, negative = active | hit rate 1.9% among 340,000; active = well fitted falling curve with a large enough effect; inconclusive = small, poorly fitted or top-dose-only effect; inactive = no such curve, though single readings can be large or run the other way; also: potency is read from the fitted curve at half-maximal effect; the source files actives as falling curves though it sought activators and does not explain the sign; nearly all actives have a fitted effect of over 65% in size; many hits overshoot -100%
Target sequence (P80244 whole entry, looked up): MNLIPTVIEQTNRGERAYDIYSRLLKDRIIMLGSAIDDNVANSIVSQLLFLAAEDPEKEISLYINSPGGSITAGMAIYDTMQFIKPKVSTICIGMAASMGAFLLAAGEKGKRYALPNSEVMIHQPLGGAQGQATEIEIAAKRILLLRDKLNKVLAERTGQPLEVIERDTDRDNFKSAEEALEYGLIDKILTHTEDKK
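FRET quenching reversal measured ClpP activation: 10 microg/mL B. subtilis ClpP at pH 8 with the FRET-FV decapeptide, read at 430 nm after 320 nm excitation. The 20-min minus 0-min signal was scaled between DMSO/no-enzyme wells and ADEP (5.8 microM final).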
An asterisk follows results filed as active; ? = inconclusive. Only part of the results is shown; rates above refer to the full screens.

SMILES	TRPML1 inh	ClpP mod
Cc1ccc(-n2c(-c3cccc(C)c3)nc3c(cnn3-c3ccccc3)c2=O)cc1	17	0.2%
O=c1c(N2CCN(c3cccc(Cl)c3)CC2)csc2ccc(Cl)cc12	-15	-11%
CC(=O)Nc1cccc(-c2cc3c(c4c2ccn4C)C2CCC3O2)c1 (stereo not drawn)	17	4.4%
COc1ccc(NC(=O)c2cc(C(C)=O)n3ccccc23)cc1Cl	8	-2.2%
O=C(C1CCC(Cn2c(=O)c3sccc3n(Cc3ccccc3)c2=O)CC1)N1CCCCC1 (stereo not drawn)	2	-2.4%
Cc1cc(O)c(C(c2ccccc2)N2CCN(C)CC2)c(=O)n1Cc1ccco1 (stereo not drawn)	32	1.3%
CCOC(=O)c1ccc(CN(Cc2ccc(F)cc2)S(=O)(=O)c2ccc(F)c(C(=O)Nc3ccccc3C(F)(F)F)c2)cc1	3	-19%
Cc1ccccc1C(=O)Nc1nnc(S(=O)(=O)N(C)Cc2ccc(Cl)cc2)s1	50	-8.3%
Cc1cc(C)c2c(c1)c(C)cc1nnc(SCC(=O)c3ccccc3)n12	20	0.1%
COc1ccc(CN2C(=O)c3oc4ccccc4c(=O)c3C2c2ccc(O)cc2)cc1 (stereo not drawn)	3	-0.4%
CN(C(=O)c1nn(C)c2c1COc1ccccc1-2)c1cccc(C(F)(F)F)c1	1	-2.8%
COCCCn1c(=N)c(C(=O)NC2CCCCC2)cc2c(=O)n3cc(C)ccc3nc21	20	4.1%

3 entries out of the list above, arranged by the value under TRPML1 inh, lowest first.
compound	TRPML1 inh
O=c1c(N2CCN(c3cccc(Cl)c3)CC2)csc2ccc(Cl)cc12	-15
Cc1ccc(-n2c(-c3cccc(C)c3)nc3c(cnn3-c3ccccc3)c2=O)cc1	17
Cc1cc(O)c(C(c2ccccc2)N2CCN(C)CC2)c(=O)n1Cc1ccco1 (stereo not drawn)	32

(continued)
SMILES	TRPML1 inh	ClpP mod
Cn1nc(C(=O)NCCc2ccc(Cl)cc2)c2c1-c1ccccc1SC2	26	-2.7%
Cc1cccc(-c2nnc(SCCC(=O)O)o2)c1	13	-2.5%
O=C(Nc1cccc(Cl)c1)c1cc2c(=O)[nH]c3ccccc3c2s1	-4	-21%
CCN(C(=O)c1nn(C)c2c1CSc1ccccc1-2)c1cccc(C)c1	-19	-0.6%
COc1ccccc1CCNC(=O)c1ccc(NC(=O)N2CC(C)Sc3ccccc32)cc1 (stereo not drawn)	11	-4.7%
CCc1nnc(NC(=O)c2cc(=O)c3cc(C)ccc3o2)s1	7	0.0%
Cn1ccc2c(-c3ccc(C(C)(C)C)cc3)cc3c(c21)C1CCC3O1 (stereo not drawn)	38	4.7%
CCc1ccc(NC(=O)CCc2nnc3n(C)c(=O)c4sccc4n23)cc1	-8	0.0%
O=C(Cn1cc(S(=O)(=O)Cc2ccccc2Cl)c2ccccc21)NCc1ccccc1Cl	-13	-2.3%
COc1ccc(CCN2C(=O)N(c3ccc(F)cc3)C(=O)C2CC(=O)Nc2ccc(F)c(F)c2)cc1 (stereo not drawn)	5	1.1%
CCN(CC)CCCNC(=O)c1ccc2c(c1)sc1nc(-c3ccc(C)cc3)cn12	22	-27%
CCOc1cccc2sc(NC(=O)CS(=O)(=O)c3ccc(C)cc3)nc12	27	-2.8%

Looked up by compound from above, 4 records:
SMILES	TRPML1 inh	ClpP mod
O=c1c(N2CCN(c3cccc(Cl)c3)CC2)csc2ccc(Cl)cc12	-15	-11%
Cc1cc(O)c(C(c2ccccc2)N2CCN(C)CC2)c(=O)n1Cc1ccco1 (stereo not drawn)	32	1.3%
COc1ccc(CN2C(=O)c3oc4ccccc4c(=O)c3C2c2ccc(O)cc2)cc1 (stereo not drawn)	3	-0.4%
Cn1nc(C(=O)NCCc2ccc(Cl)cc2)c2c1-c1ccccc1SC2	26	-2.7%

(next part)
SMILES	TRPML1 inh	ClpP mod
COc1ccc(OCc2nc(-c3ccc(OC)c(OC)c3)no2)cc1	-9	-4.0%
CCN1CCN(c2c(S(=O)(=O)c3ccc(Cl)cc3)cnc3ccccc23)CC1	19	-0.1%
COc1ccc(-c2nc3cc(C)ccn3c2NC(=O)c2ccc(C)c(C)c2)cc1	5	-5.0%
Cc1cccc(-n2ccnc2SCC(=O)Nc2ccc(F)cc2F)c1C	48	-0.6%
Cc1ccc(C(=O)COC(=O)c2cc(-c3ccccc3)nc3ccccc23)cc1C	1	0.6%
COc1ccc(-c2nc3c(c(SCC(=O)Nc4ccccc4OC)n2)Cc2cccc(C)c2O3)cc1	-1	-2.2%
Cc1ccc(C)c(N2CCN(C(=O)C3CCCN(S(=O)(=O)c4cccc5nonc45)C3)CC2)c1 (stereo not drawn)	15	0.8%
Cc1ccccc1Cn1c(-c2cccs2)nc2ccccc21	0	?
O=C(Cn1c(=O)c2sccc2n(CC(=O)Nc2ccc(Cl)cc2Cl)c1=O)NCCc1ccccc1	-2	-0.2%
CC(C)C(=O)NCC(c1ccc2c(c1)OCO2)N1CCN(c2ccccc2F)CC1 (stereo not drawn)	0	-2.4%
COc1ccc(C2CC(=O)c3cnc4c(-c5ccccc5)c(C)nn4c3C2)cc1OC (stereo not drawn)	-5	-8.7%
CCCCC(=O)Nc1cc(C)c(O)c(-c2nc3ncccc3o2)c1	1	1.2%
CCOCCc1nn2c(=O)cc(COC(=O)Cc3ccccc3)nc2s1	-6	-4.5%
CCc1cccc(C)c1NC(=O)CCS(=O)(=O)c1cc(Br)cc2c1N(C(=O)C1CC1)CC2	-18	-0.7%
CCOC(=O)c1c(NC(=O)C2c3ccccc3Oc3ccccc32)sc(C)c1C	-15	-23%
COc1cc2c(cc1OC)C(c1cc(OC)c(O)c(OC)c1)CC(=O)N2 (stereo not drawn)	14	1.3%
Cc1cc(C)c2c(=O)cc(C(=O)Nc3nc4ccc(F)cc4s3)oc2c1	8	0.3%
O=C(Nc1cccc(C(=O)OCc2cc(=O)n3c4c(sc3n2)CCCC4)c1)c1ccccc1	38	?
COc1ccc(NC(=O)COCc2cc(-c3cccs3)on2)cc1	-3	-4.7%
Cc1ccc(C(=O)Nc2ccccc2)cc1S(=O)(=O)Nc1ccc(Br)cc1	-16	-4.9%
CCOc1ccccc1N1CC(c2nc3ccccc3n2CCOc2ccc(C(C)(C)C)cc2)CC1=O (stereo not drawn)	9	-21%
CC(C)(C)C(=O)NCCc1nc2ccccc2n1CCCCOc1ccccc1	62	-2.1%
CCOc1ccc(NC(=O)CC2C(=O)N(c3ccc(OC)cc3)C(=O)N2C2CCCCC2)cc1 (stereo not drawn)	-14	1.3%
CC(=O)N1CCc2cc(Br)cc(S(=O)(=O)N3CCN(c4cccc(C)c4)C(C)C3)c21 (stereo not drawn)	5	1.2%

Not a retest: 4 of the compounds above.
SMILES	TRPML1 inh	ClpP mod
CCOCCc1nn2c(=O)cc(COC(=O)Cc3ccccc3)nc2s1	-6	-4.5%
CCc1cccc(C)c1NC(=O)CCS(=O)(=O)c1cc(Br)cc2c1N(C(=O)C1CC1)CC2	-18	-0.7%
CCOC(=O)c1c(NC(=O)C2c3ccccc3Oc3ccccc32)sc(C)c1C	-15	-23%
COc1cc2c(cc1OC)C(c1cc(OC)c(O)c(OC)c1)CC(=O)N2 (stereo not drawn)	14	1.3%

Following part:
SMILES	TRPML1 inh	ClpP mod
Cc1cccc(N2CCN(S(=O)(=O)c3nnc(NC(=O)c4ccc(Cl)cc4)s3)CC2)c1	5	-2.4%
CCc1ccc(Oc2c(C(F)(F)F)oc3c(CN4CCCC(C)C4)c(O)ccc3c2=O)cc1 (stereo not drawn)	26	-0.1%
COc1ccc(-c2cccc(NS(=O)(=O)c3cc(C)c(Cl)cc3C)c2)nn1	1	-1.2%
Cc1cc(F)ccc1NC(=O)CN1C(=O)CCc2cc(S(=O)(=O)N3CCOCC3)ccc21	7	-0.4%
CCCCc1ccc(NC(=O)c2cc3c(=O)n4ccccc4nc3n2C)cc1	32	-25%
CCn1ccc2cc(S(=O)(=O)N3CCC(C(=O)NCc4cccc(C)c4)CC3)ccc21	-4	-15%
CCc1ccccc1NC(=O)Cn1c(C(=O)OC)cc2oc(C)cc21	35	-0.4%
Cc1nn(-c2ccc(Cl)cc2)c2nc(-c3cccnc3)cc(C(F)(F)F)c12	-8	-1.4%
CN1C(=O)Cc2cc(S(=O)(=O)CCC(=O)N3CCN(c4ccc(Cl)cc4)CC3)ccc21	48	0.5%
Cc1ccc(NC(=O)Nc2nnc(SCC(=O)N(C(C)C)C(C)C)s2)cc1	-3	1.6%
Cc1ccc(Cl)cc1NC(=O)Cn1cc2c(n1)CCCCC2	15	0.6%
Fc1cccc(Cc2c(-c3cccc(Cl)c3)nc3ccc(Br)cn23)c1	14	-0.4%
CNC(=O)C1CCC(Cn2c(=O)c3sccc3n(CC(=O)Nc3cc(C)cc(C)c3)c2=O)CC1 (stereo not drawn)	-23	0.1%
Cc1ccc(-c2nc(CNC(=O)Nc3ccccc3)c(C)o2)cc1	15	-29%
CCOc1ccc(CCNC(=O)C(CC(C)C)N2Cc3ccccc3C2=O)cc1OCC (stereo not drawn)	-8	1.1%
CCC(=O)Nc1ccc(CC)cc1-c1nc2ccccc2n(CC(=O)Nc2ccccc2C)c1=O	-5	0.6%
COc1c(C)cc(Br)cc1C(=O)Nc1ccc(-c2nc3ncccc3o2)cc1	29	-11%
CCC(=O)OCCCNc1nc(-c2ccc(Cl)cc2)nc2ccccc12	-20	-14%
Cc1nn(C(=O)c2ccccc2)c(C)c1S(=O)(=O)N1CCOCC1	-9	0.1%
COc1ccccc1Nc1cc(C(=O)NC2CCC(C)CC2)c2ccccc2n1 (stereo not drawn)	1	4.3%
COc1cn(CC(=O)Nc2ccc(F)cc2)c(CN2CCCCC2)cc1=O	21	2.9%
CCc1nc2ccc(C(=O)NCc3ccc4c(c3)OCO4)cn2c1N(C)CCC(C)C	26	1.9%
CCc1ccc(C2c3c(oc4ccc(F)cc4c3=O)C(=O)N2c2nc(C)c(C(=O)OC)s2)cc1 (stereo not drawn)	12	-10%
O=C(NC1CCCCC1)c1ccc(CSc2nc3cccnc3n2Cc2ccccc2)cc1	-11	3.8%
Cc1ccc(S(=O)(=O)c2cn(Cc3ccccc3)c3cc(N4CCOCC4)c(F)cc3c2=O)cc1	9	28µM*
CCCSCCCNC(=O)CN1C(=O)COc2ccc(S(=O)(=O)N3CCCCCC3)cc21	-5	-2.4%
CCNc1c(NC(=O)c2ccccc2OCC)c(=O)oc2ccccc12	-14	-2.2%
CCc1cccc(NC(=O)c2sc3nc[nH]c(=O)c3c2C)c1	-11	-16%
Cc1c(-c2cccc(NC(=O)c3ccc(F)c(F)c3)c2)nc2ncccn12	-13	3.9%
COc1ccc(N(C(=O)c2ccccc2C)S(=O)(=O)c2ccc(C)cc2)cc1	-4	-1.6%
CCc1nn(CC(=O)Nc2ccc(N(CC)CC)cc2C)c(=O)c2cc3sccc3n12	2	-0.1%
COc1ccc(CCNC(=O)c2cnc3sc(N4CCOCC4)nn3c2=O)cc1	15	28µM*
Cc1ccc(NC(=O)c2c(C)oc3ccc(O)c(CN4CCCCC4)c23)c(C)c1	6	-4.1%
COc1cc2cc(CNc3ccccc3)c(=O)n(CC(=O)Nc3cccc(Cl)c3C)c2cc1OC	-4	4.2%
COc1ccccc1NC(=O)CSc1oc(-c2ccccc2)nc1S(=O)(=O)c1ccc(C)cc1	30	-6.8%
CC1=C(C(=O)N(C(C)C)C(C)C)CC(CC(=O)NCc2ccco2)C(=O)N1Cc1ccc(F)cc1 (stereo not drawn)	-1	-0.2%
COc1ccccc1N(CC(=O)Nc1cc(C)cc(C)c1)S(C)(=O)=O	10	-2.6%
Cc1cc(C)cc(C(=O)n2nc(C)c(S(=O)(=O)N3CCOCC3)c2C)c1	-8	-0.9%
Nc1c(C(=O)Nc2cccc(F)c2)sc2nc(-c3cccs3)ccc12	-16	3.5%
Cc1cccc(C(=O)NC2(C(F)(F)F)N=C(c3ccccc3)N(Cc3ccccc3)C2=O)c1 (stereo not drawn)	-1	3.8%
CCc1ccccc1NC(=O)Cc1ccc(-n2c(C)nc3cccnc32)cc1	-1	-1.0%
CCOC(=O)C1=C(CS(=O)(=O)c2ccc(F)c(C)c2)NC(=O)NC1c1ccccc1OC (stereo not drawn)	1	-4.4%
CCN(CC)C(=O)Cn1c(=O)n(Cc2ccc(C(=O)NCCc3ccc(OC)c(OC)c3)cc2)c(=O)c2ccccc21	6	-2.1%
O=C(OCc1cc(=O)n2c3c(sc2n1)CCCC3)c1cccc(NC(=O)c2ccccc2F)c1	-2	-12%
CCN1CCOC(=O)C1CC(=O)Nc1cc(C)cc(C)c1 (stereo not drawn)	11	1.1%
COc1ccc(C(F)(F)F)cc1NC(=O)c1sc2nc(-c3cccs3)ccc2c1N	-25	79%
CCC(=O)N1CCc2cc(S(=O)(=O)CCC(=O)N3CCN(c4cccc(Cl)c4)CC3)ccc21	9	-1.1%
CCCN1C(=O)c2[nH]nc(-c3ccccc3O)c2C1c1cccc(OCc2ccccc2)c1 (stereo not drawn)	-1	0.7%
COc1ccc(NC(=O)C2CCN(S(=O)(=O)c3ccc4c(c3)CCCC(=O)N4)CC2)cc1Cl	11	0.5%
CCCS(=O)(=O)c1nc(S(=O)(=O)c2ccc(C)cc2)c(N(CC)CC)s1	?	-0.3%
COc1ccc(OC)c(NC(=O)c2ccc(-c3nc(CSc4ccccc4)c(C)o3)cc2)c1	-5	0.4%
